Compound activity (PubChem)
VACV mCherry inh: vaccinia inhibition (mCherry reporter). Potency, µM (titrated, usually from 36.5 µM), for the others: at the top dose activity change, negative = inhibition, actives largely listed as inhibitors. hit rate 0.63% among 310,000. Vaccinia virus mCherry reporter infection, fluorescence; about a quarter of the inactives have no number; active = well fitted inhibition curve with a large enough effect; inconclusive = small, poorly fitted or top-dose-only effect; inactive = no such curve, though single readings can be large or run the other way; tested in A549 cells; note: nearly all actives have a fitted effect of over 35% in size; inactives centre near -10
VACV Venus inh: vaccinia inhibition (Venus reporter); Potency, µM (highest dose often 36.5 µM), for inactives: top-dose activity change, negative = inhibition, most hits filed as inhibitors; AID 720580; Vaccinia virus Venus reporter expression, fluorescence; hit rate 0.46% among 330,000; active means well fitted inhibition curve with a large enough effect; inconclusive means small, poorly fitted or top-dose-only effect; inactive means no such curve, though single readings can be large or run the other way; tested in A549 cells; note: nearly all actives have a fitted effect of over 30% in size; inactives centre near -10
An asterisk follows results filed as active; & = joins results of further samples; [ ] = another dose, or the depositor's remark. % is set by controls: 0 for no effect and ±100 for the full control effect; potency is the fitted concentration of half-maximal effect.

Screening CN(C)S(=O)(=O)c1cccc(C(=O)Nc2cc(S(=O)(=O)N3CCOCC3)ccc2O)c1 returned VACV mCherry inh -12% and VACV Venus inh -10%.
Screening O=C(Nc1ccccc1Cl)c1cc(=O)c2ccccc2o1 returned VACV mCherry inh -21% and VACV Venus inh -16%.
Screening CCOC(=O)C(=O)Nc1cc(Cl)ccc1C returned VACV mCherry inh inactive and VACV Venus inh -12%.
Screening C=C1CCC(=O)C(C)CCC2C1CC2(C)C (stereo not drawn) returned VACV mCherry inh -21% and VACV Venus inh -30%.
Screening CCOC(=O)c1ccc(CNCc2ccc(C)cc2)cc1 returned VACV mCherry inh inactive and VACV Venus inh -8%.
Cc1ccc(NC(=O)N2CCc3cc(S(=O)(=O)N4CCC(C)CC4)ccc32)cc1F was read as VACV mCherry inh -16% and VACV Venus inh inconclusive.
`CC(C)(C)OC(=O)NCC(=O)N1CCC(C(=O)O)CC1` gave VACV Venus inh -20%.
For CCOc1ccc(N2CC(C(=O)Nc3nnc(SCCOC)s3)CC2=O)cc1 (stereo not drawn) the results were VACV mCherry inh -13% and VACV Venus inh -7%.
COC(=O)c1sccc1NC(=O)c1cc(-c2ccc(C)cc2)nc2ccccc12 was read as VACV mCherry inh -5% and VACV Venus inh -14%.
CC(C)Cn1cnc2c(SCc3ccccc3F)nc(N)nc21 was read as VACV mCherry inh inactive and VACV Venus inh -26%.
C[C@H](CO)N1C[C@H](C)[C@@H](CN(C)Cc2ccc(C(=O)O)cc2)Oc2c(NS(=O)(=O)c3cn(C)cn3)cccc2C1=O was read as VACV mCherry inh -10% and VACV Venus inh 0%.
Screening Cc1cc(=O)c2ccc(Cl)cc2[nH]1 returned VACV mCherry inh -3% and VACV Venus inh -5%.
`Nc1ccc(CCc2ccc(N)cc2)cc1` gave VACV mCherry inh -23%[7.34 µM] and VACV Venus inh -10%[7.34 µM].
For O=c1[nH]c(/C(=N\O)c2ccccc2)no1 the results were VACV mCherry inh -18% and VACV Venus inh -10%.
Screening O=C(Nc1cccc(Oc2ccccc2)c1)C1Cc2c(-c3ccco3)ccnc2O1 (stereo not drawn) returned VACV mCherry inh -15% and VACV Venus inh -8%.
CCN(CC(=O)Nc1ccc(NC(C)=O)cc1)C(=O)CCCOc1ccc(C(C)(C)C)cc1 was read as VACV mCherry inh -13% and VACV Venus inh -25%.
Screening O=C(COc1ccc(S(=O)(=O)NC2CCCCC2)cc1)NC1CC1 returned VACV mCherry inh -7% and VACV Venus inh -17%.
For CCc1ccc(NC(=O)C(CC)n2c(=O)c(C(F)(F)F)nc3ccccc32)cc1 (stereo not drawn) the results were VACV mCherry inh -1% and VACV Venus inh 3%.
For COc1ccccc1N1CCN(C2CCCN(C(=O)c3oc(C)cc3C)C2)CC1 (stereo not drawn) the results were VACV mCherry inh -24% and VACV Venus inh -17%.
Screening CCc1c(O)nc(SC2CC(=O)N(c3ccc(F)c(Cl)c3)C2=O)[nH]c1=O (stereo not drawn) returned VACV mCherry inh -1% and VACV Venus inh 2%.

The list goes on; it opens with the three that closed the last part.
For CCc1ccc(NC(=O)C(CC)n2c(=O)c(C(F)(F)F)nc3ccccc32)cc1 (stereo not drawn) the results were VACV mCherry inh -1% and VACV Venus inh 3%.
For COc1ccccc1N1CCN(C2CCCN(C(=O)c3oc(C)cc3C)C2)CC1 (stereo not drawn) the results were VACV mCherry inh -24% and VACV Venus inh -17%.
Screening CCc1c(O)nc(SC2CC(=O)N(c3ccc(F)c(Cl)c3)C2=O)[nH]c1=O (stereo not drawn) returned VACV mCherry inh -1% and VACV Venus inh 2%.
For COc1ccc2[nH]cc(C(=O)NCCc3ccccc3)c(=O)c2c1 the results were VACV mCherry inh inactive and VACV Venus inh -15%.
Screening CCOc1ccc(NC(=O)CSc2nnc3c(n2)[nH]c2ccc(S(=O)(=O)N(C)C)cc23)cc1 returned VACV mCherry inh -15% and VACV Venus inh -14%.
`CCc1ccc(NC(=O)C2=CC(c3ccc(OC)c(OC)c3)=NS(=O)(=O)N2C)cc1` gave VACV mCherry inh -6% and VACV Venus inh -21%.
Screening COc1cc(C(=O)NCC(c2cccnc2)N2CCN(c3ccccc3)CC2)cc(OC)c1OC (stereo not drawn) returned VACV mCherry inh 12% and VACV Venus inh 6%.
For COc1cc(C(=O)N2CCN(c3ccccc3)CC2)c2ccccc2n1 the results were VACV mCherry inh -2% and VACV Venus inh inconclusive.
`CCCCCN1CC(=O)N2[C@@H](Cc3c([nH]c4ccccc34)C2(C)C)C1=O` gave VACV mCherry inh -26% and VACV Venus inh -14%.
Screening Cc1cc(C)c2c(CC(=O)Nc3ccc(S(=O)(=O)Nc4nc(C)cc(C)n4)cc3)coc2c1 returned VACV mCherry inh -9% and VACV Venus inh -15%.
`N#Cc1ccc(CSc2nnc(NC(=O)C3CC(=O)N(c4ccc5c(c4)OCCO5)C3)s2)cc1` (stereo not drawn) gave VACV mCherry inh -3% and VACV Venus inh -11%.
`CCOC(=O)N/N=C\c1cccc(OC)c1OC/C=C/c1ccccc1` gave VACV mCherry inh -17% and VACV Venus inh -26%.
For COc1ccc(S[C@@H](CCN2CC[C@H](NC(=O)OCc3ccccc3)CCC2=O)c2ccccc2)cc1 the results were VACV mCherry inh inconclusive and VACV Venus inh inconclusive.
For CCc1cccc(OCCCCN(CC)CC)c1 the results were VACV mCherry inh inactive and VACV Venus inh -17%.
`Cc1ccn2c(=O)c(C(=O)NCCCN3CCCCC3C)c(O)nc2c1` (stereo not drawn) gave VACV mCherry inh -10%&6% and VACV Venus inh -3%&-1%.
COc1cccc(CNC(=S)NC2CC2)c1 was read as VACV mCherry inh inactive and VACV Venus inh -6%.
For COc1ccc(S(=O)(=O)Nc2ccc3c(c2)OCO3)cc1 the results were VACV mCherry inh inactive and VACV Venus inh -5%.
Screening CCOc1ccc(CCNC(=O)Cn2nc(CC)n3c(cc4ccccc43)c2=O)cc1 returned VACV mCherry inh 3% and VACV Venus inh -7%.
Cn1ncc([N+](=O)[O-])c1C(=O)Nc1ccc(-c2nc3ccccc3[nH]2)cc1 was read as VACV mCherry inh -14% and VACV Venus inh inconclusive.
Screening COc1cccc(CNC(=O)CSc2nc3ccccc3nc2Cc2ccccc2)c1 returned VACV mCherry inh -25% and VACV Venus inh inconclusive.
Screening CCOc1ccc(N2CC(C(=O)NCCc3ccc(OC)c(OC)c3)CC2=O)cc1 (stereo not drawn) returned VACV Venus inh -7%.
Cc1c(-c2nc(-c3cccnc3)no2)cccc1[N+](=O)[O-] was read as VACV mCherry inh inactive and VACV Venus inh -9%.
Screening COc1ccc(CNCCNC(=O)c2cccs2)c(OC)c1OC returned VACV mCherry inh -10% and VACV Venus inh -5%.
COc1cccc(C(=O)NC(=O)Nc2nc(C)cc(C(F)(F)F)n2)c1 was read as VACV mCherry inh -25%[7.34 µM] and VACV Venus inh -11%[7.34 µM].
Screening CCOc1ccc(CCNC(=O)C2CC(=O)N(c3ccc4c(c3)OCCO4)C2)cc1OCC (stereo not drawn) returned VACV mCherry inh -4% and VACV Venus inh 4%.
CN(c1ccccc1)S(=O)(=O)c1cc(Cl)ccc1Cl was read as VACV mCherry inh -7% and VACV Venus inh -7%.
For O=C(CCc1ccccc1)Nc1nc2n(n1)C(c1ccc(Cl)cc1)CC(=O)N2 (stereo not drawn) the results were VACV Venus inh -27%.
For CCOCc1cc(C2NC(=O)NC(C)=C2C(=O)OCC)ccc1OC (stereo not drawn) the results were VACV Venus inh 1%.
Screening Cc1cc(NC(=O)CSc2ccc(-c3cccc([N+](=O)[O-])c3)nn2)no1 returned VACV mCherry inh -5% and VACV Venus inh -5%.
`COc1cc2nc(N(CCN(C)C)C(=O)c3ccc(S(=O)(=O)N(C)CC4CCCO4)cc3)sc2cc1OC` (stereo not drawn) gave VACV mCherry inh -15% and VACV Venus inh -9%.
Screening O=C(N/C(=C/C=C\c1ccccc1)C(=O)N1CCOCC1)c1ccc(Br)cc1 returned VACV mCherry inh inactive and VACV Venus inh -4%.
For O=C(c1nn2c(C(F)(F)F)cc(-c3ccccc3)nc2c1Cl)N1CCN2CCCC2C1 (stereo not drawn) the results were VACV mCherry inh inconclusive and VACV Venus inh -28%.
For COc1ccc(CNC(=O)COc2ccc(Br)c(C)c2)cc1 the results were VACV mCherry inh -9% and VACV Venus inh -9%.
COc1ccc(N2CCN(C3CCCN(C(=O)c4ccoc4)C3)CC2)cc1 (stereo not drawn) was read as VACV mCherry inh -10% and VACV Venus inh -7%.
CCCCC1CN2CCc3c([nH]c4ccccc34)C2(C)C1 (stereo not drawn) was read as VACV mCherry inh inactive and VACV Venus inh -1%.
For O=S(=O)(NCc1ccc(F)cc1)c1ccccc1Br the results were VACV mCherry inh -2%&-2% and VACV Venus inh -18%&-10%.
Screening COc1ccc(-c2onc(C)c2C)cc1S(=O)(=O)N1CCN(c2ccc(Cl)cc2)CC1 returned VACV mCherry inh -12% and VACV Venus inh -5%.
For Cc1ccc(C)c(N2CCN(C(=O)CCc3nc(-c4ccc(F)cc4)no3)CC2)c1 the results were VACV mCherry inh -1% and VACV Venus inh -10%.
Screening CN1OC[C@@H]2CN(S(=O)(=O)c3ccccc3)[C@H](c3ccc(-n4ccnc4)cc3)C[C@@H]21 returned VACV mCherry inh 46%[activator] and VACV Venus inh -10%.
For O=C(COC(=O)c1ccc(Cl)nc1)Nc1cccnc1Cl the results were VACV mCherry inh -12% and VACV Venus inh -10%.
CCN(CC)S(=O)(=O)c1ccc(NC(=O)Cc2cccs2)cc1 was read as VACV mCherry inh 2% and VACV Venus inh -7%.
CC(C)NC(=S)N1CCN(C(c2ccccc2)c2ccccc2)CC1 was read as VACV mCherry inh inactive and VACV Venus inh -10%.
For CC(=O)Nc1cc(-c2ccc(C(=O)N3CCOCC3)cc2)cn2c(-c3ccc(F)cc3)cnc12 the results were VACV mCherry inh -19% and VACV Venus inh -9%.

The last 6 entries of the section before are carried over, then new ones follow:
For Cc1ccc(C)c(N2CCN(C(=O)CCc3nc(-c4ccc(F)cc4)no3)CC2)c1 the results were VACV mCherry inh -1% and VACV Venus inh -10%.
Screening CN1OC[C@@H]2CN(S(=O)(=O)c3ccccc3)[C@H](c3ccc(-n4ccnc4)cc3)C[C@@H]21 returned VACV mCherry inh 46%[activator] and VACV Venus inh -10%.
For O=C(COC(=O)c1ccc(Cl)nc1)Nc1cccnc1Cl the results were VACV mCherry inh -12% and VACV Venus inh -10%.
CCN(CC)S(=O)(=O)c1ccc(NC(=O)Cc2cccs2)cc1 was read as VACV mCherry inh 2% and VACV Venus inh -7%.
CC(C)NC(=S)N1CCN(C(c2ccccc2)c2ccccc2)CC1 was read as VACV mCherry inh inactive and VACV Venus inh -10%.
For CC(=O)Nc1cc(-c2ccc(C(=O)N3CCOCC3)cc2)cn2c(-c3ccc(F)cc3)cnc12 the results were VACV mCherry inh -19% and VACV Venus inh -9%.
`CCN1C(=O)[C@@H]2[C@@H](c3ccc(-c4cccc(Cl)c4)cc3)N3CCC[C@@]3(C(=O)OC)[C@@H]2C1=O` gave VACV mCherry inh -12% and VACV Venus inh -21%.
CCOC(=O)c1c(-c2ccccc2)csc1NC(=O)CSc1nc(N)cc(N)n1 was read as VACV mCherry inh -24% and VACV Venus inh inconclusive.
CCN(CC)CCNC(=S)Nc1ccc(F)cc1 was read as VACV mCherry inh inconclusive and VACV Venus inh -13%.
CCc1ccc(NC(=O)C2CCCN(S(=O)(=O)c3cccnc3)C2)cc1 (stereo not drawn) was read as VACV mCherry inh -4%[7.34 µM] and VACV Venus inh 2%[7.34 µM].
For CCC1COCCS(=O)(=O)N1Cc1ccc(Cl)cc1 (stereo not drawn) the results were VACV mCherry inh -21% and VACV Venus inh -15%&-9%.
CCc1ccc(NC(=O)CSc2nc(C)cc(COC)c2C#N)cc1 was read as VACV mCherry inh -4% and VACV Venus inh 7%.
`CCCn1c(NCc2ccco2)nc2ccccc21` gave VACV mCherry inh -8% and VACV Venus inh -8%.
For Cc1ccc(NC2CCCN(C(=O)c3ccc4nccnc4c3)C2)cc1C (stereo not drawn) the results were VACV mCherry inh -12% and VACV Venus inh -11%.
S=C(CN1CCCC1=S)N1CCOCC1 was read as VACV mCherry inh -10% and VACV Venus inh 7%.
Screening O=C(COC(=O)CNC(=O)c1cccc([N+](=O)[O-])c1)Nc1nc2ccccc2s1 returned VACV mCherry inh inactive and VACV Venus inh -16%.
COc1ccc(C(=O)CSc2nnc(C(CO)NC(=O)c3ccc(OC)cc3)n2C)cc1 (stereo not drawn) was read as VACV Venus inh -11%.
For CC1(C)Cc2ccccc2C(N/N=C/c2cccc(F)c2)=N1 the results were VACV mCherry inh -5% and VACV Venus inh inconclusive.
Screening CCCn1c(=O)c(C(=O)NNS(=O)(=O)c2ccc(C)cc2)c(O)c2ccccc21 returned VACV mCherry inh -16% and VACV Venus inh -7%.
Screening CCOC(=O)c1cnc2sc3c(n2c1=O)CCCC3 returned VACV Venus inh inconclusive.
`O=C(NCc1ccc(F)cc1)c1c2c(nc3ccccc13)CCN(Cc1ccccc1)C2` gave VACV mCherry inh inactive and VACV Venus inh -2%.
CCCN(CC(=O)Nc1ccccc1C)C(=O)c1sc2ccccc2c1Cl was read as VACV mCherry inh inactive and VACV Venus inh 0%.
For Cc1ccc(C)c(Nc2nnc(-c3ccc(C)c(S(=O)(=O)N4CCCCC4)c3)c3ccccc23)c1 the results were VACV mCherry inh -23% and VACV Venus inh -16%.
For NC(Cc1ccccc1)Cc1ccccc1 the results were VACV mCherry inh -17% and VACV Venus inh -6%.
Cc1c(C)c2ccc(OCC(=O)N3C[C@H]4C[C@@H](C3)c3cccc(=O)n3C4)c(C)c2oc1=O was read as VACV mCherry inh -8% and VACV Venus inh -2%.
O=C(CCc1ccccc1)Nc1nncs1 was read as VACV Venus inh -21%.
Cc1cccc(Cl)c1OCCCN1CCOCC1 was read as VACV mCherry inh inactive and VACV Venus inh 1%.
